T cruzi inh: blocks replication of Trypanosoma cruzi. 300,000 compounds, 1.4% hits. inhibition, % (test concentration not listed). T. cruzi beta-gal in NIH3T3, luminescence, 90 h;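 active means mean inhibition across valid replicates above about 55%, limit read from the data; inconclusive means mean below that limit but half or more replicates reach it; inactive means mean below it, under half of replicates reach it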;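 further: signal also drops with host cell toxicity which is not excluded here; 0% = plate median of DMSO wells and 100% = zero luminescence signal; higher percent means less beta-gal luminescence so fewer parasites; stock transfer was 50 nL into about 50 µL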
Beta apoptosis: blocks beta cell apoptosis. protection from apoptosis, % (concentration not given with the values). 300,000 compounds, 0.8% hits. INS-1E cytokine-induced death, ATP luminescence, 48 h; percent of positive-control rescue, neutral wells zero;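 active means all replicates at 75% or more, or half of them and the mean; inconclusive means half reach 75% but not the mean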;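 further: 0% = cytokine-treated negative control wells and 100% = positive control rescue; higher means more ATP so stronger rescue from cytokine killing; wells of about 40 µL received 100 nL stock; the first replicate is given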
LANA-H2A inh: blocks KSHV LANA binding to histone H2A/H2B; Q9QR71; cell-free LANA-H2A/H2B peptide, fluorescence polarization; inhibition, % (concentration not given with the values); 320,000 compounds, 0.6% hits; AID 2629; in the data active means inhibition mostly above about 10%, no sharp cut-off; inactive means mostly below about 6.7%;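 further: stock transfer was 7.5 nL into about 10 µL; 0% = median of vehicle wells and 100% = median of positive control wells; one replicate is shown; the record names a cut of 25% in any replicate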
Vif A3G: inhibitors of Vif binding to APOBEC3G peptide, primary screen, biochemical, TR-FRET, GST-Vif 1-94, biotin-A3G peptide, dose response retest (AID 1117319); inhibition, %, or IC50 in µM where a hit was titrated; 260,000 compounds, 0.57% hits; TR-FRET GST-Vif / biotin-A3G peptide binding; higher % means a stronger effect; test concentration not given here; strong numbers were not always called active;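 active means above the screen mean plus three standard deviations and confirmed in dose response; inconclusive means results disagree or hit not tested in dose response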;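 further: Vif residues 1-94 fused to GST binding biotinylated APOBEC3G peptide 110-148; 0% = full assay without inhibitor and 100% = GST in place of GST-Vif; retest series ran down from 100 µM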
Calb FLC: affects C. albicans growth with fluconazole | C. albicans CaCi-2 (fluconazole-resistant clinical isolate) + fluconazole, Alamar Blue growth, 48 h | growth inhibition, % (concentration not given with the values) | 300,000 compounds, 0.57% hits;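 active means most replicates above 75%; inconclusive means exactly half above 75%; inactive means most below 75%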;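 further: all wells also contain fluconazole at 8 µg/ml as a sub-toxic cotreatment; 0% = median of DMSO wells and 100% = median of geldanamycin control wells; wells of about 8 µL received 7.5 nL stock; the first replicate is given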
A1 inh: inhibitors of the anti-apoptotic protein A1, read as caspase activation | MEF A1-2A-BIM cells, Caspase-Glo 3/7 luminescence, 3 h; percent of clofoctol response, vehicle zero | caspase activation, % (concentration not given with the values) | 330,000 compounds, 0.066% hits;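 active means over half of replicate activation scores above 10%, or exactly half above 10 with the replicate mean above 10; inconclusive means replicate mean below 10 yet half the replicates above 10; inactive means over half of replicates below 10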;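 further: wells of about 30 µL received 50 nL stock; many hits fall short of the cut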
AF4-AF9 inh: inhibitors of human MLL-AF4/AF9 interaction; P42568; AlphaScreen, biotin-AF4 peptide binding to FLAG-AF9; inhibition, % at 10 µM; 350,000 compounds, 0.47% hits;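 active means every replicate reaching a set inhibition limit, whatever the replicate mean, cut at about 25% in these data; inconclusive means mean inhibition reaches that limit but some replicates miss it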;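 further: 0% = plate neutral control median and 100% = total signal loss; the record names both 10 and 1 µM as test concentration; the first replicate is given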
Target sequence (P42568 whole entry, looked up): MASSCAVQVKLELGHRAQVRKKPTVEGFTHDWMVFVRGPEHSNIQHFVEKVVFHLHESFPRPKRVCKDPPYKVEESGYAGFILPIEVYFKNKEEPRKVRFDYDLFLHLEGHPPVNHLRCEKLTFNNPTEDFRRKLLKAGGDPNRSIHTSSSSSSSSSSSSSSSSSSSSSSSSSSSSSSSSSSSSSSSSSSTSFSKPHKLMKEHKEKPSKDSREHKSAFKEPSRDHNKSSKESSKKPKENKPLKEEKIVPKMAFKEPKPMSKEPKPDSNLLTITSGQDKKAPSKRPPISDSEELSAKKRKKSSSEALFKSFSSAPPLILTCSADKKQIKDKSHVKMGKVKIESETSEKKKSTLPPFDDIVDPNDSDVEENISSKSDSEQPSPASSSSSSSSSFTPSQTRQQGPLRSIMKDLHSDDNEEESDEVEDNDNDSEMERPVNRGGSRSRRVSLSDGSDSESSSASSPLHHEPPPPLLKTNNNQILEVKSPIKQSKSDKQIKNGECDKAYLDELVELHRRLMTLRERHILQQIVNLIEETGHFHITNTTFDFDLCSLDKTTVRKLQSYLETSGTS
RanGTP-Impb inh: inhibitors of RanGTP-importin-beta interaction, primary screen, biochemical, FRET, CFP-Ran, YFP-importin-beta, homogeneous; cell-free CFP-Ran/YFP-importin-beta FRET ratio; inhibition, % (test concentration not listed); 300,000 compounds, 1.1% hits; AID 2216;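 active means most replicates above 15%; inconclusive means exactly half above 15%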;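 further: 0% = DMSO wells and 100% = Ran loaded with GDP instead of GTP; wells of about 40 µL received 100 nL stock; the first replicate is given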
Active calls of the source: *; & = joins results of further samples.

For Cc1ccc(-n2c(O)c(C=NC3CCCCC3N)c(=O)[nH]c2=O)cc1C (centres undefined) the results were T cruzi inh -12.7, Beta apoptosis -1.9, LANA-H2A inh 3.0, Vif A3G 14.2%, Calb FLC -3.2, A1 inh -0.2 and RanGTP-Impb inh inconclusive.
Screening N#CC1(c2ccccc2)CCN(C2CC(=O)N(c3cccc(F)c3)C2=O)CC1 (centres undefined) returned T cruzi inh -16.1, Beta apoptosis 1.3, LANA-H2A inh 1.6, Vif A3G 3.9%, Calb FLC 12.6, A1 inh -0.6, AF4-AF9 inh 2.0 and RanGTP-Impb inh 0.4.
COC(=O)C1=C(c2cccc(Cl)c2)C[C@@H]2CC[C@H]1N2C(=O)NCC1CC1 was read as Beta apoptosis -4.6, LANA-H2A inh -2.0, A1 inh -0.2 and AF4-AF9 inh 1.5.
COC(=O)C1=C(c2ccc(Cl)c(C(F)(F)F)c2)C[C@@H]2CC[C@H]1N2C(=O)NCc1cc(C)oc1C(F)(F)F was read as Beta apoptosis -2.1, LANA-H2A inh 1.6, A1 inh -0.1 and AF4-AF9 inh 0.0.
Screening O=C(Cc1ccccc1)OC(COCc1ccccc1)CN1CCOCC1 (centres undefined) returned T cruzi inh -12.4, Beta apoptosis -1.9, LANA-H2A inh -0.5, Vif A3G -1.6%, Calb FLC 0.5, A1 inh -0.2 and RanGTP-Impb inh 4.3.
`Cn1cc(C(=O)OCC(=O)Nc2ccccc2)c2ccccc21` gave Beta apoptosis 2.6, LANA-H2A inh 89.8*, Vif A3G -12.9%, A1 inh 1.1 and AF4-AF9 inh -3.7.
Screening CC(C(=O)Nc1ccc(Cl)cc1Cl)N1CC=C(c2ccccc2)CC1 (centres undefined) returned T cruzi inh 28.6, Beta apoptosis 2.1, LANA-H2A inh 4.3, Vif A3G -0.4%, Calb FLC 1.5, A1 inh -0.3, AF4-AF9 inh 4.6 and RanGTP-Impb inh 1.1.
`O=c1[nH]c(=O)n(-c2ccc(Cl)cc2)c(O)c1C=NCCN1CCCCC1` gave T cruzi inh 10.3, Beta apoptosis -1.8, LANA-H2A inh -2.0, Vif A3G -13.7%, Calb FLC -0.3, A1 inh 0.3, AF4-AF9 inh -2.8 and RanGTP-Impb inh -1.1.
Screening CCCC(=O)N(C)C1=Nc2ccc(Cl)cc2C(c2ccccc2)=[N+]([O-])C1 returned T cruzi inh 3.3, Beta apoptosis -5.6, LANA-H2A inh -2.3, Vif A3G -6.8%, Calb FLC 3.0, A1 inh 0.0, AF4-AF9 inh 0.9 and RanGTP-Impb inh -3.5.
For CCCNC(=O)N1C2CCC1CC(O)(c1cccnc1)C2 (centres undefined) the results were T cruzi inh -5.7, Beta apoptosis -3.5, LANA-H2A inh -0.2, Vif A3G -7.6%, Calb FLC 13.4, A1 inh 1.0 and RanGTP-Impb inh 1.1.
COc1ccc(C2CN(C)CC2C(=O)c2ccc(F)cc2)cc1Cl (centres undefined) was read as T cruzi inh 27.6, Beta apoptosis -17.7, LANA-H2A inh -1.7, Vif A3G 15.5%, Calb FLC -11.7, A1 inh 0.0, AF4-AF9 inh 4.7 and RanGTP-Impb inh 1.5.
Screening O=C(CN1CC(c2ccccc2)CC1=O)Nc1cccc(F)c1 (centres undefined) returned T cruzi inh 0.8, Beta apoptosis -7.0, LANA-H2A inh -0.5, Calb FLC 2.7, A1 inh 1.3, AF4-AF9 inh -0.7 and RanGTP-Impb inh -3.2.
For Cc1cccc(C)c1OC(=O)Cc1ccccc1 the results were T cruzi inh -4.6, Beta apoptosis -0.4, LANA-H2A inh -1.8, Vif A3G -5.6%, Calb FLC 3.5, A1 inh 0.6, AF4-AF9 inh -2.5 and RanGTP-Impb inh 0.1.
`CCN1CCN(CC(c2ccccc2)c2ccccc2)CC1` gave T cruzi inh 8.1, Beta apoptosis -1.4, LANA-H2A inh -2.1, Vif A3G 2.4%, Calb FLC -19.1, A1 inh -1.5, AF4-AF9 inh 0.9 and RanGTP-Impb inh 4.7.
For O=C(NCc1ccc(C(=O)N2CCC3(CC2)OCCO3)cc1)c1ccc2c(c1)OCO2 the results were T cruzi inh 1.0, Beta apoptosis -21.3, LANA-H2A inh 2.5, Vif A3G -0.9%, Calb FLC -1.6, A1 inh 0.7 and RanGTP-Impb inh 7.7.
For Cc1ccc2c(c1)C1CN(C)CCC1N2C(=O)/C(C#N)=C/c1ccc2c(c1)OCO2 (centres undefined) the results were T cruzi inh -7.8, Beta apoptosis -8.8, LANA-H2A inh 0.8, Vif A3G -1.8%, Calb FLC -0.3, A1 inh 0.2, AF4-AF9 inh 11.6 and RanGTP-Impb inh 0.2.
Screening Cc1ccc2c(CN3CC=C(c4ccccc4)CC3)cc(=O)oc2c1C returned T cruzi inh 9.0, Beta apoptosis 1.0, LANA-H2A inh 1.1, Calb FLC -17.0, A1 inh 1.2, AF4-AF9 inh 1.5 and RanGTP-Impb inh 0.7.
Screening Cc1cccc(-n2c(C)nc3ccc(Cl)cc3c2=O)c1 returned T cruzi inh 5.3, Beta apoptosis -1.8, LANA-H2A inh 5.0, Vif A3G -0.9%, Calb FLC 2.8, A1 inh 0.7, AF4-AF9 inh 1.5 and RanGTP-Impb inh 1.7.
Screening CC/C(=N\N1CCN(C)CC1)c1c(O)[nH]c(=O)[nH]c1=O returned T cruzi inh -9.4, Beta apoptosis -1.2, LANA-H2A inh -2.1, Calb FLC -0.2, A1 inh 0.7 and RanGTP-Impb inh -1.0.
CS(=O)(=O)NNP(=O)(NNS(C)(=O)=O)NC(=O)c1ccc(Br)cc1 was read as T cruzi inh 12.1, Beta apoptosis 1.6, LANA-H2A inh 3.8, Vif A3G inconclusive, Calb FLC -11.3, A1 inh 0.1, AF4-AF9 inh -8.3 and RanGTP-Impb inh 5.6.
`Cc1cc(NC(=O)CCC(=O)N2CCC3(CC2)OCCO3)no1` gave T cruzi inh -0.3, Beta apoptosis -0.1, LANA-H2A inh 2.5, Vif A3G 4.3%, Calb FLC 1.8, A1 inh inconclusive and RanGTP-Impb inh 3.4.
Screening O=C(CN1CCOCC1)c1ccc2cc[nH]c2c1 returned T cruzi inh -6.2, Beta apoptosis -2.3, LANA-H2A inh 3.3, Vif A3G inconclusive, Calb FLC 6.1, A1 inh 1.2, AF4-AF9 inh 3.4 and RanGTP-Impb inh -6.5.
For CC12CC[C@H]3[C@@H](CCC4(O)C[C@H](O)CCC34/C=N/NC(=O)c3ccccc3[N+](=O)[O-])C1(O)CCC2C1=CC(=O)OC1 (some centres undefined) the results were T cruzi inh 3.6, Beta apoptosis -4.8, LANA-H2A inh 2.5, Vif A3G -8.1%, Calb FLC -0.5, A1 inh 0.0, AF4-AF9 inh -0.1 and RanGTP-Impb inh -3.2.
Screening CN(C)c1ccc(/C=C2/C(=N\O)C3CCN2CC3)cc1 returned T cruzi inh 3.1, Beta apoptosis 2.9, LANA-H2A inh 4.0, Vif A3G -10.0%, Calb FLC 14.9, A1 inh 1.1, AF4-AF9 inh 20.2 and RanGTP-Impb inh 56.9*.
Screening COc1ccccc1NC1=NCCS1 returned T cruzi inh 10.8, Beta apoptosis -7.8, LANA-H2A inh -0.4, Vif A3G 14.8%, Calb FLC -2.4, A1 inh 1.2 and RanGTP-Impb inh -1.9.
For CCCN(CCC)C1CCc2ccc(O)cc2C1 (centres undefined) the results were Beta apoptosis -3.9, LANA-H2A inh -8.5, A1 inh 0.2 and AF4-AF9 inh -0.9.
For COC(=O)C1=C(c2ccc(F)cc2F)C[C@@H]2CC[C@H]1N2C(=O)NCc1ccc(F)cc1 the results were Beta apoptosis -4.9, LANA-H2A inh -3.7, A1 inh 2.2 and AF4-AF9 inh -2.0.
For CC(C)N1OC2CC1c1nc3ccccc3n1C2 (centres undefined) the results were T cruzi inh -22.1, Beta apoptosis 0.9, LANA-H2A inh -7.4, Vif A3G 6.8%, Calb FLC -8.6, A1 inh -0.2, AF4-AF9 inh -4.8 and RanGTP-Impb inh -2.3.
CC[C@@H](CO)NC(=O)[C@@H]1C=C2c3cccc4c3c(cn4C)C[C@H]2N(C)C1 was read as T cruzi inh 7.2&-8.6, Beta apoptosis 6.7&2.3, LANA-H2A inh 10.4&5.0&8.9, Calb FLC 14.3&12.2, A1 inh -1.4&0.6&0.9, AF4-AF9 inh 12.3&10.9 and RanGTP-Impb inh -12.5&2.3.
Screening O=c1[nH]c(=O)n(-c2ccccc2)c(O)c1/C=C/C=Nc1ccccc1 returned T cruzi inh -1.7, LANA-H2A inh -12.2, Calb FLC inconclusive, A1 inh 0.4 and RanGTP-Impb inh 58.0*.
For O=C1CN=C(c2ccccc2)c2ccccc2N1 the results were T cruzi inh 2.3, LANA-H2A inh -2.4, Vif A3G -1.2%, Calb FLC -13.0, A1 inh -0.3, AF4-AF9 inh 0.8 and RanGTP-Impb inh -1.6.
Screening CC(=O)Nc1ccc(OC(=O)N2CCCCC2)cc1 returned T cruzi inh 2.0, Beta apoptosis 0.4, LANA-H2A inh -2.1, Vif A3G 0.7%, Calb FLC -5.7 and A1 inh 0.2.
For COc1cc2c(c(OC)c1OC)-c1ccc(C(=O)O)cc1[C@@H](NC(C)=O)CC2 the results were T cruzi inh -23.4, Beta apoptosis -6.2, LANA-H2A inh 3.1, Calb FLC -8.2, A1 inh 0.3 and RanGTP-Impb inh inconclusive.
For CN(C)C1=C(C#N)C(c2ccccc2)=NP(N(C)C)(N(C)C)=N1 the results were T cruzi inh -1.3, Beta apoptosis 3.3, LANA-H2A inh -6.7, Vif A3G -3.3%, Calb FLC 5.5, A1 inh -0.3 and RanGTP-Impb inh 5.0.
For CCN1CCN(c2ccc(NC(C)=O)cc2Cl)CC1 the results were T cruzi inh 15.0, Beta apoptosis 1.0, LANA-H2A inh 5.3, Vif A3G -4.4%, Calb FLC -13.3, A1 inh 0.9, AF4-AF9 inh -1.7 and RanGTP-Impb inh 0.6.
CN1CCc2nc(SCC(=O)OC(C)(C)C)c(C#N)cc2C1 was read as T cruzi inh 40.4, Beta apoptosis -4.0, LANA-H2A inh 3.4, Vif A3G -23.1%, Calb FLC 1.7, A1 inh 0.7 and RanGTP-Impb inh 3.0.
Screening O/N=C1\CCC2CN(C3CCCCC3)CC2C1 (centres undefined) returned T cruzi inh -14.1, Beta apoptosis -0.5, LANA-H2A inh -2.4, Vif A3G 0.1%, Calb FLC 0.1, A1 inh -0.4 and RanGTP-Impb inh -1.4.
Screening CN1C(=O)C(=Cc2cc([N+](=O)[O-])ccc2N2CCCCC2)C(=O)N(C)C1=O returned T cruzi inh 13.1, Beta apoptosis -1.3, LANA-H2A inh 5.4, Vif A3G -0.9%, Calb FLC -12.8, A1 inh 1.7, AF4-AF9 inh -15.7 and RanGTP-Impb inh -1.3.
Screening CCSc1nnc([C@@H](N)Cc2c[nH]c3ccccc23)o1 returned T cruzi inh 9.1, Beta apoptosis 0.9, LANA-H2A inh -0.2, Vif A3G 6.6%, Calb FLC 28.1, A1 inh -0.6 and RanGTP-Impb inh 3.0.
`O=c1[nH]c(=S)n(-c2ccccc2Cl)c(O)c1C=NCCN1CCNCC1` gave T cruzi inh -1.2, Beta apoptosis -3.3, LANA-H2A inh 0.0, Vif A3G -2.5%, Calb FLC 4.2, A1 inh inconclusive, AF4-AF9 inh 1.4 and RanGTP-Impb inh -2.9.
Screening S=C=Nc1cccc(C2(N3CCCCC3)CCCCC2)c1 returned Beta apoptosis -0.9, LANA-H2A inh 0.1, A1 inh -0.8 and AF4-AF9 inh 8.6.
For O=C(c1ccc2c(c1)ncn2-c1ccc(F)cc1F)N1CCC2(CC1)OCCO2 the results were T cruzi inh 1.0, Beta apoptosis 6.8, LANA-H2A inh 4.0, Vif A3G -11.3%, Calb FLC 3.3, A1 inh -0.2, AF4-AF9 inh -0.3 and RanGTP-Impb inh -1.8.

This is a subset; count on the stated rates, not on these rows.
